# Screening data: PubChem BioAssay, PCMD
# Calb biofilm kill = mixtures killing C. albicans biofilm; C. albicans biofilm persisters + clotrimazole, fluorescence viability; primary screen in compound mixtures of four per well; inhibition, % at 7.6 µM; actives 0.02% (n = 120,000); AID 1242;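 active = inhibition above 30.3% in the primary screen of four-compound pools, then above 30% when the compound was retested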;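 note: compounds exposed to preformed 24 h biofilms for 48 h; the number belongs to the whole pool; some results filed as inactive read as strong as hits; inactives centre near 12; 0% = biofilm with clotrimazole alone and 100% = kill control; retested singly at about 60 µM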
#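 Test system: C. albicans CAF4-2 wild-type biofilms; buffer or medium: RPMI/MOPS medium, pH 7.0; schedule: 24 h biofilm formation, then 48 h compound exposure, 37 °C; detection: Alamar Blue fluorescence; measure: percent inhibition of biofilm viability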
# * = called active by the depositor.
SMILES,Calb biofilm kill
Cc1ccn(CC(=O)N2N=C(C(F)F)CC2(O)C(F)F)n1 (configuration not stated),12
COc1ccc(NC(=O)Cc2ccc(C)cc2)c([N+](=O)[O-])c1,3
O=C1CSC(c2cccc([N+](=O)[O-])c2)N1c1c(F)cccc1F (configuration not stated),10
CC1(C)CC(=O)C2=C(C1)c1c(ccc3ccccc13)NC2c1cc([N+](=O)[O-])cc([N+](=O)[O-])c1O (configuration not stated),23
Cc1cccc2cc(C#N)c(N3CCC(O)CC3)nc12,12
CSc1cccc(CN2CCN(CCc3ccccc3)C(CCO)C2)c1 (configuration not stated),20
CCOC(=O)c1c(NC(=O)c2cccnc2)sc(C(C)=O)c1C,-4
Cc1cccc(CSCCNC(=O)COc2ccc(Cl)cc2)c1,21
CCCCC(=O)Nc1ccc(NC(=S)NC(=O)c2cccs2)cc1OC,10
COc1ccc(N2C(=O)CC(Nc3cccc([N+](=O)[O-])c3)C2=O)cc1 (configuration not stated),7
CC(C)(C)S(=O)(=O)c1cnc(N2CCCCC2)nc1N,25
CCOC(=O)c1c(NC(=O)c2ccc(-n3cnnn3)cc2)sc2c1CCCC2,4
Cc1nc(SCc2ccccc2)nc2c1CCC2,6
COc1cc(/C=N\NC(=O)c2nonc2N)c(OC)cc1Br,11
CCC(C)(C)NC(=O)CN(Cc1ccc2c(c1)OCO2)C(=O)CCC(=O)Nc1nccs1,4
Cc1ccc(CS/C(Nc2ccccc2C)=C(\C#N)C(N)=O)c(C)c1,18
O=C1NC2(CCCCCC2)C(=O)N1Cc1ccc([N+](=O)[O-])cc1,11
Cc1ccc(C(=O)c2ccccc2C(=O)OCC(=O)NCCc2ccccc2)cc1,15
O=C(NCC1CCCO1)c1cc(NS(=O)(=O)c2cccs2)cc(NS(=O)(=O)c2cccs2)c1 (configuration not stated),10
NC(=O)NC(c1ccc(Cl)cc1)c1ccccc1Cl (configuration not stated),23
NNC(=S)Nc1ccc(S(=O)(=O)N2CCCCC2)cc1,8
Cc1nc(Br)c(Br)c(C)c1Br,20
CCCn1c(=O)c(C#N)cn(C2CC2)c1=O,18
CCC(CC)NC(=O)Nc1ccc(C)cc1,14
Cc1ccc[n+](CC(=O)N2CCCc3ccccc32)c1,21
# The results go on:
SMILES,Calb biofilm kill
COc1cc(C2NC(=S)NC(C)=C2C(=O)Nc2ccc(C)cc2)ccc1O (configuration not stated),13
O=[N+]([O-])c1ccc2[nH]c3c(c2c1)CCCC3,18
COc1ccccc1NC(=S)NC1CCC(CC2CCC(NC(=S)Nc3ccccc3OC)CC2)CC1 (configuration not stated),-5
CSc1nc2nc(-c3ccc(F)cc3)c(CCN3CCN(C)CC3)cn2n1,8
O=C(O)Cc1ccc(OCc2ccc(Cl)nc2)cc1,9
O=c1c2cccnc2[nH]c(=S)n1Cc1ccccc1,20
COC(=O)c1cc(NC(=O)c2cc(-c3ccc(C(F)(F)F)cc3)oc2C(F)(F)F)ccc1N1CCOCC1,32
Cc1ccc(CNC(=O)[C@H]2C[C@@H]2[C@H](NP(=O)(c2ccccc2)c2ccccc2)c2ccccc2)o1,5
c1ccc(NCc2nc3ccccc3n2CCOc2ccccc2)cc1,8
CC1C/C(=N\NC(N)=S)c2cc(Cl)ccc2S1 (configuration not stated),26
Cc1c(C(=O)OC(C)C)sc(N)c1C(=O)OC(C)C,21
COc1ccc(CN2CCn3nc(C(=O)NC4CC4)cc3C2=O)cc1,5
O=C(Cc1ccc(Cl)cc1)OCc1nnc(-c2ccccc2)o1,-8
COc1ccc(CNC(=O)CSc2nn3c(=O)c(C(C)(C)C)nnc3s2)cc1OC,10
COc1ccc(C(=O)CC2SC(N)=NC2=O)cc1 (configuration not stated),11
COC(=O)Cc1ccc(Oc2ncc(C(F)(F)F)cc2Cl)cc1,-1
CCCn1c(SCC(=O)NCc2ccc(F)cc2)n[nH]c1=O,13
Cc1ccc(NC(=O)CNCc2ccccc2)cc1Br,12
C/C(=N\NC(=O)C(N)=O)c1ccc2c(c1)OCCO2,3
CCCCN1CNC(=S)N(CCc2ccccc2)C1,14
CN(C)CCC#CC(O)(c1ccccc1)c1ccccc1,18
Cc1ccc(N2C(=O)CC(NNC(=O)Cc3ccc(F)cc3)C2=O)cc1Cl (configuration not stated),15
Cc1ccc(-n2c(-c3nn(C)cc3Cl)n[nH]c2=S)cc1,12
O=C(/C(=N\O)n1cncn1)c1ccc(Cl)cc1Cl,17
O=C(COC(=O)c1cc(Cl)nc2ccccc12)c1ccc(Cl)cc1,-2

# Structural class, the entries above with a cyano group.
SMILES,Calb biofilm kill
Cc1cccc2cc(C#N)c(N3CCC(O)CC3)nc12,12
Cc1ccc(CS/C(Nc2ccccc2C)=C(\C#N)C(N)=O)c(C)c1,18
CCCn1c(=O)c(C#N)cn(C2CC2)c1=O,18

# Reprinted from the results shown for reference:
SMILES,Calb biofilm kill
Cc1ccc(CNC(=O)[C@H]2C[C@@H]2[C@H](NP(=O)(c2ccccc2)c2ccccc2)c2ccccc2)o1,5
c1ccc(NCc2nc3ccccc3n2CCOc2ccccc2)cc1,8
CC1C/C(=N\NC(N)=S)c2cc(Cl)ccc2S1 (configuration not stated),26

# (more compounds)
SMILES,Calb biofilm kill
Oc1[nH]c(=S)sc1/C=C1\C(c2ccccc2)=Nc2ccccc21,-6
CCOC(=O)c1sc2cc([N+](=O)[O-])cc(SCCO)c2c1N,4
CC(C)N1CCN(Cc2cccs2)CC1CCO (configuration not stated),15
COc1ccc(/C=C/C(=O)NC(=S)NNC(=O)c2cc(OC)c(OC)c(OC)c2)cc1OC,-6
O=C(Cc1ccc(F)cc1)Oc1ccc(C(=S)N2CCCC2)cc1,20
CCOC(=O)c1ccc(NC(=O)C2(c3ccccc3)CCOCC2)cc1,19
CCOC(=O)c1nn(-c2ccccc2F)c2nc(-c3ccco3)c(C#N)c(=O)n12,7
Clc1ncccc1-c1nnn(-c2ccccc2Br)n1,21
CCCCCCN=C(C)c1ccccc1O,8
O=C(CCC1CCCN(C(=O)c2cncs2)C1)NCc1ccc(F)c(F)c1 (configuration not stated),6
CC(O)[C@H]1CNC(=O)C(=O)N1CCc1cccc(F)c1 (some centres not stated),0
CN1CCN(C(=O)C2=C[C@@H](C3CCCCC3)C[C@@H](OCc3ccc(CO)cc3)O2)CC1,12
CC1=CC(=O)C(C(C)C)=CC1=NC(=O)c1ccc(C)cc1,7
CCCCC(CC(O)COCCC)C(=O)NN (configuration not stated),15
CCc1cccc(CC)c1NC(=O)Cn1c(-c2ccccc2Cl)nc2ccccc21,14
O=C(CNc1ccccc1)N/N=C/c1c[nH]c2ccccc12,10
CCCCC#Cc1ccccc1CC(=O)Nc1ccccc1,7
COc1ccccc1NCC(=O)N/N=C(\C)c1cccs1,8
FC(F)(F)Oc1ccc(NC(=S)Nc2ccccc2N2CCOCC2)cc1,13
Cc1cc(C)c(C)c(S(=O)(=O)N2CCN(CC(=O)Nc3sccc3C#N)CC2)c1C,20
c1ccc(CSc2ncn[nH]2)nc1,11
CCN(CC)S(=O)(=O)c1ccc(/C=C/C(=O)OCC(=O)NCc2ccc3c(c2)OCO3)cc1,11
Cc1cc(C)nc(Sc2ccc(/C=C(\C#N)C(N)=O)o2)n1,0
O=c1sc2ccccc2n1Cc1ccccc1,3
c1ccc2c(c1)c1ccccc1n2CN1CCOCC1,14
# Further results follow:
SMILES,Calb biofilm kill
Cn1ncc(Cl)c1C(=O)Nc1ccc(Cl)cn1,9
Cc1ccc(-n2nc(-c3ccc(OC(F)(F)F)cc3)cc2N)cc1C,2
O=[N+]([O-])c1ccc(-c2csc(NN=C3CCCC3)n2)cc1,7
CC(C)(C)[C@H]1C=C(C(=O)NCc2nc3ccccc3[nH]2)O[C@@H](OCc2ccc(CO)cc2)C1,13
Cc1ccc(-c2cc([C@H]3[C@H]4C=CC[C@@H](C)[C@@H]4C(=O)N3Cc3ccccc3)ccc2F)cc1,8
CCOC(=O)c1cc(C)sc1/N=C/C1C(=O)CCCC1=O,10
Cc1nc(SCC(=O)c2cc3ccccc3oc2=O)c(C#N)c(-c2cccs2)c1C(=O)Nc1ccccc1,13
Cc1cccc(NC(=O)CCCN2C(=S)NC(C)(C)CC2C)c1C (configuration not stated),7
COc1ccc([N+](=O)[O-])cc1NC(=O)CCC(=O)c1cccs1,11
NC(=O)CC(NC(=O)Cc1cccc2ccccc12)c1ccc(N2CCC(Br)CC2)c([N+](=O)[O-])c1 (configuration not stated),10
COc1ccc(/C=N/NC(=O)c2cc(-c3cccn3C)n[nH]2)cc1OC,16
CCOC(=O)c1c(/N=C/c2cccc(C)c2O)sc2c1CCN(C)C2,17
COc1cc(C(=S)N2CCCCC2)ccc1OCC(=O)Nc1ccccc1Cl,13
CCC(C)N(C(=O)COc1ccc(NC(C)=O)cc1)C1CCS(=O)(=O)C1 (configuration not stated),7
Cc1ccc(NC(=O)CN2CCN(S(=O)(=O)c3cccs3)CC2)cc1S(=O)(=O)N(C)C,3
Cc1ccc(NC(=O)C2CC(=O)N/C(=N/N=C/c3ccco3)S2)cc1C (configuration not stated),19
Cc1ccccc1OCC(=O)OCC(=O)c1ccc(-c2ccccc2)cc1,14
CCc1ccc(/C=N/NC(=O)C(=O)NCCCN2CCOCC2)cc1,13
O=[N+]([O-])c1ccc(/C=N/Nc2nc(N3CCCCCC3)nc(N3CCCCCC3)n2)o1,13
C=CCn1c(COc2ccc(F)cc2)nnc1SCC(=O)c1c[nH]c2c(CC)cccc12,10
CCCC(=O)NC(NC1CCS(=O)(=O)C1)C(Cl)(Cl)Cl (configuration not stated),11
CC(OC(=O)CCc1nc2ccccc2c(=O)[nH]1)C(=O)Nc1ccc2c(c1)OCO2 (configuration not stated),20
O=C(Nc1nnc(SCC(=O)N2CCCc3ccccc32)s1)c1ccccc1,-1
COC(=O)[C@H]1C[C@@H]1[C@H](NC(=O)c1cnccn1)c1ccccc1,0
CCN(CC)C(=O)/C(=C/c1cn(S(=O)(=O)N(C)C)c2ccccc12)NC(=O)c1ccc(OC)cc1,13

# Next section (6 carried over from the part before).
SMILES,Calb biofilm kill
C=CCn1c(COc2ccc(F)cc2)nnc1SCC(=O)c1c[nH]c2c(CC)cccc12,10
CCCC(=O)NC(NC1CCS(=O)(=O)C1)C(Cl)(Cl)Cl (configuration not stated),11
CC(OC(=O)CCc1nc2ccccc2c(=O)[nH]1)C(=O)Nc1ccc2c(c1)OCO2 (configuration not stated),20
O=C(Nc1nnc(SCC(=O)N2CCCc3ccccc32)s1)c1ccccc1,-1
COC(=O)[C@H]1C[C@@H]1[C@H](NC(=O)c1cnccn1)c1ccccc1,0
CCN(CC)C(=O)/C(=C/c1cn(S(=O)(=O)N(C)C)c2ccccc12)NC(=O)c1ccc(OC)cc1,13
COCC(=O)N1CCN(c2cccc(C(F)(F)F)c2)CC1,25
COc1cc2nc(Cl)nc(N3CCN(C)CC3)c2cc1OC,14
CCC/C(O)=C1\C(=O)CC(c2ccccc2)CC1=NCCc1c(C)[nH]c2ccccc12 (configuration not stated),11
Cc1ccc(C2=NN(CC(=O)NCc3cccs3)C(=O)CC2)cc1,12
Cn1c(-c2ccccc2)c(/C=N/NC(=O)c2ccc(O)cc2)c2ccccc21,8
CCC(=O)NC1(Cc2ccc(O)cc2)CCCCC1,6
CCOc1cc(C(=O)Nn2cnnc2)cc(OCC)c1OCC,15
COc1ccc(Cn2ccnc2)cc1[N+](=O)[O-],13
Cc1cccc(N2C(=N)SCC2=O)c1C,16
O=C(CN1C(=O)CCC1=O)Nc1nc(-c2ccc(Oc3ccccc3)cc2)cs1,-7
CN(C)/C=N/c1nc2nccc(-c3cccc(Cl)c3)n2n1,4
CC(C)Cn1c(=O)[nH]c(=O)c2c(C(F)(F)F)cc(-c3ccccc3)nc21,8
CCOC(=O)N1CCN(C(=O)CCCCn2c(=S)[nH]c3ccsc3c2=O)CC1,15
CN(C)c1ccc(C(CNC(=O)c2ccccc2Br)c2c[nH]c3ccccc23)cc1 (configuration not stated),13
COc1ccc(-c2nn(-c3ccccc3)cc2N)cc1,7
Cc1ccc(NC(=O)Cc2c(O)c3ccccc3[nH]c2=O)c(C)c1,16
CCCCC(=O)NC(=S)NNC(=O)c1ccc(OC)cc1,16
O=C(O)CNS(=O)(=O)c1ccc(C2CCCCC2)cc1,15
Cc1ccc[n+](CC(=O)/C=C2\N(C)c3ccccc3C2(C)C)c1,19
O=C(NC1CCCCCC1)C(Cc1ccccc1)n1cccc1 (configuration not stated),24
N#Cc1ccc(C23CC4(C2)[C@H](CN(Cc2ccc(C(F)(F)F)cc2)[C@@H]4c2ccccc2)C3c2ccc(Cl)nc2)cc1 (some centres not stated),16
Cc1nc(NC(=O)c2ccccc2)sc1Cc1ccc2c(c1)OCO2,12
C=CCNC(=O)c1cc(Cl)ccn1,11
CC1=Nc2cc(C(=O)O)ccc2Sc2ccc(C)cc21,26
CCCC/C(O)=C1\C(=O)CCCC1=NCCc1c(C)[nH]c2ccccc12,10
# (cont.)
SMILES,Calb biofilm kill
O=C(O)c1cc(-c2ccc(/C=N/N3C(=O)C4C5C=CC(C6CC56)C4C3=O)o2)ccc1Cl (configuration not stated),-11
CCc1cc2c(=O)c(-c3nc4ccccc4[nH]3)coc2c(CN2CCCCC2)c1O,24
CCOC(=O)N/N=C/c1c(C)c(C(=O)c2ccc(F)cc2)n2ccccc12,17
CC(CCc1ccccc1)NC(=O)COc1ccc(S(=O)(=O)N2CCOCC2)cc1[N+](=O)[O-] (configuration not stated),-10
COc1ccc(CNC(=O)c2coc(=O)c3ccccc23)cc1,18
Oc1ccc(NC(=S)N=Nc2c(O)[nH]c3ccccc23)cc1,17
Cn1c(SCC(=O)c2ccc3c(c2)NC(=O)CO3)nc2ccccc21,12
CCCCNS(=O)(=O)c1ccc2nc(-c3cccnc3)cc(C(=O)NCCCOCC)c2c1,8
COc1cccc(NC(=O)Nc2ccncc2)c1,13
Cc1cc(-c2ccccc2)nc(N/N=C/c2ccc([N+](=O)[O-])cc2)n1,21

# Not all compounds are listed; the hit share may differ from the screen's.
